Screening results from PubChem BioAssay.
Rango dissoc inh – prevents RanGTP from dissociating the Rango-importin beta complex. Biochemical FRET Rango-importin beta, RanGTP-induced dissociation. Potency, µM (series often up to 46.1 µM), for the others: top-dose activity change, negative = inhibition. hit rate 0.071% among 340,000. AID 540253; active means falling FRET ratio curve, often poorly fitted, with flat reads before Ran was added; inconclusive means other falling curves, or compound fluorescence or quenching; inactive means flat or rising ratio curve;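 note: potency is the fitted concentration of half-maximal effect; % of control where 0% means no effect; nearly all actives have a fitted effect of over 45% in size; -100% = wells without RanGTP and RCC1; the record marks most hits as doubtful in a second field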
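Recombinant Rango FRET biosensor (EYFP–snurportin 1 IBB–cerulean CFP10) at 0.1 uM premixed with 0.25 uM importin beta in PBS, 1 mM DTT, 0.02% Tween-20, 0.1% BSA. Compound added 5 min; RanGTP-RCC1 (0.6 uM Ran, 2 mM GTP, 0.2 uM RCC1) then triggers release, read at 45 min.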
GLA inh pH 4.5 – alpha-galactosidase A (human) inhibition, pH 4.5. AID 1467. P06280. purified enzyme, 4-MU-alpha-Gal fluorescence, pH 4.5. activity change, negative = inhibition, % at 105 µM. 230,000 tested, under 10 active; inconclusive = small, poorly fitted or top-dose-only inhibition, or a rising curve; inactive = flat fitted curve, though single readings scatter; no compound was filed as active;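 note: 0% = full activity with enzyme and -100% = basal without enzyme; dose as in the result columns while the protocol names 77 µM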
miR-21 FLuc – raises the signal of a miR-21 reporter. AID 2288. HeLa miR-21 FLuc reporter, luciferase, 48 h. 340,000 tested, under 10 active. Potency, µM (series often up to 38.3 µM), for the others: at the top dose reporter change, positive = more light; active = well fitted rising curve with a large enough effect; inconclusive = small, poorly fitted or top-dose-only effect; inactive = no such curve, though single readings can be large or run the other way;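 note: % of control where 0% means no effect; miR-21 action dims this reporter so a rising signal means less miR-21 action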
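Compounds were titrated across several concentrations (up to approximately 40 uM) and incubated 48 hours with HeLa miR-21-FLuc reporter cells (miR-21 target sequence downstream of FLuc, endogenous miR-21). Readout was firefly luciferase luminescence after lytic detection reagent.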
Rango-impB inh – prevents formation of the Rango-importin beta complex. Q14974. Potency, µM (series often up to 92.2 µM), inactives show at the highest dose inhibition of complex formation. hit rate 0.031% among 340,000. Rango CFP/YFP FRET sensor + importin beta, 45 min. AID 540263; active = rising FRET ratio curve, often small or poorly fitted; inconclusive = mostly compound fluorescence or quenching in the first reads; inactive = flat curves in all reads;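 note: potency is the fitted concentration of half-maximal effect; 0% = DMSO wells and 100% = buffer wells lacking importin beta; nearly all actives have a fitted effect of over 15% in size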
Target sequence (Q14974 whole entry, looked up): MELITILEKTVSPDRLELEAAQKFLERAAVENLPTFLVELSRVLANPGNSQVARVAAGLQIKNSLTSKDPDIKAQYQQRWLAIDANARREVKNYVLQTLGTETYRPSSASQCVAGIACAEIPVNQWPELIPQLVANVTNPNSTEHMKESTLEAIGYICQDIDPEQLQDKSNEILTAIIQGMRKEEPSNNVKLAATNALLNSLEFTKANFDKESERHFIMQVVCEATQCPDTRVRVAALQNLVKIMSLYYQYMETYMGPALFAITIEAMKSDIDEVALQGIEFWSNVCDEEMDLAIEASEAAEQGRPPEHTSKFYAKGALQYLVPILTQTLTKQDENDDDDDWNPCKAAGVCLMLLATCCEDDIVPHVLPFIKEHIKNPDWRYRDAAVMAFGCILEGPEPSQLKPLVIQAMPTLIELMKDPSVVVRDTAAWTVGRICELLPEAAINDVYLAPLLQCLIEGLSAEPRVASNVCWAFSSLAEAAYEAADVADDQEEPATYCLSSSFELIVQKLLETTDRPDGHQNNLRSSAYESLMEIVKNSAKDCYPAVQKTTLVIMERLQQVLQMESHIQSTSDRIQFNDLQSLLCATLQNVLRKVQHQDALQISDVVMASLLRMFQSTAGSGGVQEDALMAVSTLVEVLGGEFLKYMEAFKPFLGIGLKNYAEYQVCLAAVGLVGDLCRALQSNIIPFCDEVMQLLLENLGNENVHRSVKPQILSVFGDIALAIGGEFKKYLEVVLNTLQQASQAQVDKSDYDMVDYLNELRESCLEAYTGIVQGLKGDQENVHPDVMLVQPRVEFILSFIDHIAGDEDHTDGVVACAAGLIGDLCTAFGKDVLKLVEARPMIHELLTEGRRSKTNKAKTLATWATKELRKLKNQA
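Inhibition scored from the CFP 486 nm/YFP 530 nm FRET ratio 45 min after adding 0.125 microM importin beta to 50 nM Rango biosensor preincubated 5 min with compound (room temperature, PBS with DTT, Tween-20, BSA). No-importin wells as positive control.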
* = called active by the depositor; ? = inconclusive; . = no result given; & = joins results of further samples. Not all compounds are listed. The share of hits here may be higher or lower than overall.

Sequence of screens: GLA inh pH 4.5 | miR-21 FLuc | Rango-impB inh | Rango dissoc inh
- CC(Sc1nnc(Cc2cccs2)n1C1CCCCC1)C(=O)NCc1ccco1 (centres undefined)
→ 7.1 | 7.0% | 4.8% | 2.8%
- O=C(O)c1ccc(/C=C2/SC(=S)N(Cc3ccccc3)C2=O)cc1
→ . | -0.5% | 4.3% | -6.5%
- Cc1cc(NC(=O)CN2C(=O)NC(CC(C)C)C2=O)no1 (centres undefined)
→ . | . | 0.8% | 6.6%
- Nc1nc(-c2cccnc2)nn1C(=O)COc1ccccc1
→ 6.3 | -8.1% | -5.3% | 4.5%
- CCN(c1ccc(NC(=O)CSc2nnc3nc(C)cc(C)n23)cc1)C(C)C
→ ? | -4.7% | 5.2% | 12.1%
- CC(C)(C)n1nc2c(c1NC(=O)c1cccs1)CS(=O)C2 (centres undefined)
→ -2.2 | -2.8% | 5.7% | 11.1%
- C[C@H](CO)N1C[C@H](C)[C@@H](CN(C)S(=O)(=O)c2ccccc2)Oc2c(NS(=O)(=O)c3cccs3)cccc2C1=O
→ . | . | -1.2% | 0.6%
- CCOC(=O)C1=NNC(C(=O)c2ccc(OC)cc2)C1c1ccccc1 (centres undefined)
→ -3.4 | -9.0% | -2.5% | 6.2%
- N/C(=N\OC(=O)/C=C/c1ccccc1Cl)c1ccncc1
→ -0.5 | -68.0% | 4.6% | 9.3%
- CCCN1CCN(CCCNC(=O)c2ccc3nc(N4CCCCC4)sc3c2)CC1
→ . | -33.7% | 2.4% | 23.5%
- CN(CC(=O)Nc1ccc(F)c(F)c1F)C(=O)/C=C/c1ccco1
→ . | . | 1.4% | 0.4%
- Cc1nc2ccc(NC(=O)c3cc(Cl)ccn3)cc2s1
→ . | -63.0% | 1.8% | 1.9%
- CCn1c(SCC(=O)NCCc2ccccc2)nc2c(c1=O)SC(C)C2 (centres undefined)
→ 7.4 | -2.1% | 1.6% | -3.4%
- O=C(O)CCC(=O)Nc1ccccc1C(=O)NC1CCCCC1
→ 1.9 | -5.9% | ? | 0.5%
- O=C(c1ccccc1)n1ccc(-c2cnc(-c3ccccc3)s2)n1
→ 14.5 | -57.8% | -0.1% | -13.1%
- CC(C)Cc1nnc(NC(=O)CN2C(=O)C3CCCCC3C2=O)s1 (centres undefined)
→ . | . | 3.6% | 8.3%
- CSCCNC(=O)c1ccc(C(C)(C)C)cc1
→ 1.1 | -40.4% | 2.8% | 4.5%
- O=[N+]([O-])c1ccccc1/C=C/C=N/N1CCCCC1
→ 1.6 | -67.6% | ? | -28.6%
- CNC(=S)NNC(=O)COc1cccc(C)c1C
→ 1.8 | -9.1% | 1.9% | 5.4%
- O=C(CS(=O)(=O)Cc1ccccc1)Nc1ncccn1
→ -5.9 | 2.0% | -0.4% | -1.1%
- CCOC(Cn1cc(C)c(=O)[nH]c1=O)OCC
→ 8.2 | 2.0% | -0.9% | 10.3%
- CCCC(OC(=O)CN1C(=O)COc2ccccc21)C(=O)NC1CCCC1 (centres undefined)
→ -20.6 | 0.5% | -0.5% | 1.7%
- CCOc1ccc(NC(=S)Nc2cc(-c3ccccc3)[nH]n2)cc1
→ -10.1 | -1.1% | -3.3% | -2.2%
- CC(=O)c1ccc(N2CCN(C(=O)c3ccc(OCc4c(C)noc4C)cc3)CC2)cc1
→ 0.6 | -4.7% | 0.6% | -20.8%
- COc1ccc(C2=NOC(C(=O)NCc3cccs3)C2)cc1OC (centres undefined)
→ -4.2 | 15.3% | 0.1% | -17.4%
- COc1cc(S(=O)(=O)N(C)C)ccc1F
→ -13.9 | -3.5% | 0.3% | 0.5%
- CC(C)n1cc(/C(N)=N/O)c(=O)n(Cc2ccccc2)c1=O
→ 1.5 | -6.1% | -1.1% | 21.6%
- O=C(COC(=O)c1cc([N+](=O)[O-])ccc1N1CCOCC1)NCc1ccc(F)cc1
→ . | -14.8% | 4.1% | -7.4%
- NC(=O)C1CCCCc2c1[nH]c1ccc(Cl)cc21 (centres undefined)
→ . | -1.4% | 0.8% | 0.1%
- COc1ccc2c(c1)c1ncn(CCN3CCCCC3)c(=O)c1n2C
→ 17.5 | -20.6% | -1.4% | -0.7%
- CC(=O)c1cccc(NC(=O)c2cccc3ccccc23)c1
→ . | -13.4% | 3.6% | -8.5%
- CCOC(=O)/N=C(/NC(=O)Nc1ccc(C(=O)OCC)cc1)OC
→ 5.6 | -10.4% | -1.4% | 3.7%
- CN(C)C(CNC(=O)CCNC(=O)c1ccc(Cl)cc1)c1ccco1 (centres undefined)
→ . | . | -1.0% | -7.0%
- Cc1ccccc1CC1(CO)CCCN(C(=O)c2cc(Cl)ccc2F)C1 (centres undefined)
→ 4.7 | -2.9% | -4.0% | -12.2%
- CC1CCCC(NC(=O)CSc2nncs2)C1C (centres undefined)
→ . | . | 0.4% | 22.7%
- Cc1onc(-c2ccccc2Cl)c1C(=O)N1CCCCC1
→ . | -2.0% | 1.3% | 1.4%
- Cc1cccc(-c2noc(C(C)NC(=O)c3ccco3)n2)c1 (centres undefined)
→ . | -7.5% | 1.0% | -1.5%
- COc1ccc(C(=O)NNC(=O)c2cc3cc(OC)ccc3oc2=O)cc1
→ -8.2 | 0.3% | -1.5% | -9.2%
- Cc1ccc(S(=O)(=O)NC(C)C(c2cccs2)N2CCOCC2)cc1 (centres undefined)
→ 4.0 | -10.0% | 0.1% | 1.5%
- COc1ccc(NC(=O)CSc2nccn2Cc2ccco2)c(OC)c1
→ . | -26.2%&-35.4% | -0.6% | -1.9%
- Cc1cccc(NC(=O)CSc2nnc(Cc3ccccc3)o2)c1
→ -2.6 | -0.3% | 0.9% | 2.3%
- Cc1occc1C(=O)N/N=C/C(Br)=C/c1ccccc1
→ 3.0 | -8.2% | 0.7% | -11.3%
- CCN1CCCC1CNCc1ccccc1OCc1ccc(F)cc1 (centres undefined)
→ 0.0 | -6.1% | -1.0% | -0.5%
- O=C(NNC(=O)c1ccc(F)cc1F)c1ccc(-n2cnnn2)cc1
→ . | -5.5% | -0.8% | 14.1%
- CCCCC(=O)Nc1c2c(nn1-c1ccc([N+](=O)[O-])cc1)CS(=O)(=O)C2
→ . | -1.3% | 0.8% | 1.5%
- COc1cc(C(=O)NC(=S)N(CCc2ccccc2)CCc2ccccc2)cc(OC)c1OC
→ -3.8 | ? | 0.2% | -6.0%
- CN1N=C2c3ccccc3CCC2C1c1ccc(C(F)(F)F)cc1 (centres undefined)
→ 5.5 | -12.0% | 0.2% | 2.5%
- Cc1ccc(NC(=O)COC(=O)C2CCN(c3ccc(C(F)(F)F)cn3)CC2)cc1
→ . | . | 1.4% | -19.0%
- CC(=O)c1c(C)[nH]c(C2=NNC(=NC(C)(C)C)SC2)c1C
→ 3.5 | -34.7% | -1.8% | -0.4%
- Cc1cccc(Cn2c(SCC(=O)Nc3ccccc3)nc3c2c(=O)[nH]c(=O)n3C)c1
→ -4.9 | 8.0% | 0.1% | -11.6%
- Cc1ccccc1OCC(=O)OCC(=O)c1cc(C)n(C2CC2)c1C
→ . | . | 2.2% | -8.3%
- CCOc1cc(C=O)c(Br)cc1OC1CCCC1
→ -8.6 | -5.8% | -0.1% | 2.0%
- Cc1cccnc1NC(=O)C1COc2ccccc2O1 (centres undefined)
→ -8.4 | -8.3% | 3.2% | -12.7%
- O=C(OCCN1C(=O)c2ccccc2C1=O)c1ccc(S(=O)(=O)N2CCCCCC2)cc1
→ -8.9 | -4.5% | 0.4% | -13.9%
- O=C(c1ccco1)N1CCN(c2nc3ccccc3c(=O)n2-c2ccccc2)CC1
→ -1.0 | 1.5% | 0.0% | 13.4%
- CCN(CC)C1CCCCC1NS(=O)(=O)c1ccc(Cl)cc1 (centres undefined)
→ 1.1 | -0.2% | 1.0% | -19.8%
- O=C(NC1CCN(Cc2ccccc2)CC1)c1cccc(S(=O)(=O)Nc2cc(C(F)(F)F)ccc2Cl)c1
→ -17.5 | 8.1% | 1.7% | 4.8%
- CCOc1ccc(-c2[nH]ncc2Oc2ccccc2OC)c(O)c1
→ -15.1 | 0.7% | 0.0% | -11.6%
- COc1cc(C(=O)NNC(=O)C2CCCC2)cc(OC)c1OC
→ . | 13.5% | -0.5% | 2.3%
- C/C(CC(=O)Nc1ccc2c(c1)OCCO2)=N\NC(=O)c1ccccc1Cl
→ . | -18.3% | -1.5% | -13.4%

The list continues:
Sequence of screens: GLA inh pH 4.5 | miR-21 FLuc | Rango-impB inh | Rango dissoc inh
- CCOC(=O)C1C(C)=C(Nc2ccc(OC)cc2)C(=O)N1c1ccc(OC)cc1 (centres undefined)
→ 1.8 | -1.7% | ? | 26.5%
- CC(O)c1nc2ccccc2n1CC(=O)Nc1ccc(F)cc1Cl (centres undefined)
→ -7.5 | 3.6% | 1.1% | 2.9%
- CCCCN1CC(=O)N2[C@H]3c4ccccc4OC[C@@H]3[C@H](C(=O)OCC)[C@]2(C)C1=O
→ . | . | 3.6% | -7.4%
- O=C(O)CC(NNC(=O)c1ccccc1)C(=O)Nc1ccc([N+](=O)[O-])cc1 (centres undefined)
→ -7.3 | -35.3% | -0.7% | 6.5%
- Cc1cc(OCC(=O)C(C)(C)C)c2c(C)c(C)c(=O)oc2c1
→ -2.3 | 10.1% | -2.2% | 12.3%
- COCCNC(=O)C1(C)C=CC2(CCCCC2)N1C(=O)c1ccccc1 (centres undefined)
→ -1.3&4.3 | -7.3% | -0.6% | -13.8%
- Cc1cccc(C2c3[nH]c4ccccc4c3CCN2C(=O)c2cc(CC(C)C)[nH]c(=O)n2)n1 (centres undefined)
→ -0.8 | -1.4% | -4.5% | 1.0%
- COc1ccc([C@H]2CC(=O)C=C(c3cccc4c3sc3ccccc34)C2)cc1OC
→ . | . | 0.3% | -4.7%
- Cn1c(=O)c2c(nc(SCC(=O)NC3CCCC3)n2C)n(C)c1=O
→ . | -1.0% | 0.8% | 1.1%
- C/C(=N\Nc1ccc(Cl)cc1)c1ccccn1
→ -8.6 | -35.5% | -3.8% | 1.1%
- Cn1c(N2CCN(c3ccccn3)CC2)nc2c1c(=O)n(Cc1ccc(Cl)cc1)c(=O)n2C
→ -4.3 | -2.2% | -2.8% | -14.2%
- CNC(=O)c1c(NC(=O)c2ccco2)sc2c1CCC2
→ . | -13.5% | ? | -22.8%
- CN(C)S(=O)(=O)c1cccc(NC(=O)c2ccc(Sc3nncn3C)c([N+](=O)[O-])c2)c1
→ 1.0 | 0.5% | -2.3% | 1.4%
- S=C(NCc1ccccc1)Nc1ccc2cn[nH]c2c1
→ -22.2 | -10.8% | -2.8% | 13.8%
- CCO[C@H]1OC(C(=O)O)=C[C@@H](C(C)(C)C)[C@@H]1CCCO
→ . | . | 0.1% | -11.0%
- CC(=O)N1CCN(C(=O)Nc2cccc(C(F)(F)F)c2)CC1
→ -1.1 | -5.3% | 2.9% | -0.2%
- Cc1cccc(NC(=S)N2CCN(c3ccccc3)CC2)c1
→ -8.0 | -6.1% | 1.2% | 4.7%
- O=C(c1ccc(Br)o1)N(c1ccc(Br)cc1)C1C=CS(=O)(=O)C1 (centres undefined)
→ -6.5 | -5.2% | -4.0% | -2.3%
- O=C(NNc1nc2c(F)cccc2s1)c1ccccc1
→ 1.9 | -8.0% | 1.5% | 23.1%
- Cc1nn(C(C)C(=O)NCCN2CCCC2)c(=O)c2c1sc1ccccc12 (centres undefined)
→ . | -7.8% | 0.1% | -2.9%
- COc1ccc(S(=O)(=O)Nc2ccc(F)cc2)cc1N(C)S(=O)(=O)c1ccc(Cl)cc1
→ -2.9 | 27.0% | -3.5% | -10.6%
- Cc1cc(C)n(-c2nc(N(C)C)nc(N3CCOCC3)n2)n1
→ -13.6 | -7.5% | 1.3% | -8.6%
- Cc1cccc2cc(C#N)c(N3CCN(C)CC3)nc12
→ 4.1 | -10.5% | -0.4% | 2.8%
- CC(C)[C@H](NC(=O)c1ccco1)C(=O)N(C)Cc1ccc(C(F)(F)F)cc1
→ . | 2.5% | 3.7% | -6.3%
- O=C(c1ccc(CS(=O)c2ccccc2Cl)o1)N1CCOCC1 (centres undefined)
→ . | -3.6% | -0.5% | -5.2%
- C/C(=N\NC(=O)c1nnn(-c2nonc2N)c1-c1cccs1)c1cccnc1
→ . | 0.1% | 3.2% | -12.2%
- COc1ccc(-c2nnc(NC(=O)c3ccccc3C)o2)cc1
→ 4.5 | 15.9% | -4.3% | 7.8%
